# HPGD inh: HPGD (human) dehydrogenase inhibition; purified HPGD, NADH fluorescence kinetic, PGE2 substrate; actives 4.3% (n = 150,000); Potency, µM, inactives show top-dose activity change, negative = inhibition, most hits filed as inhibitors; P15428; AID 894; active = well fitted inhibition curve with a large enough effect (not every such curve was filed as active); inconclusive = small, poorly fitted or top-dose-only effect, or another doubt; inactive = no such curve, though single readings can be large or run the other way;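 further: top concentration of the series not given in the record; plate controls included wells without enzyme; inactives centre near -10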
# Target sequence (P15428 whole entry, looked up): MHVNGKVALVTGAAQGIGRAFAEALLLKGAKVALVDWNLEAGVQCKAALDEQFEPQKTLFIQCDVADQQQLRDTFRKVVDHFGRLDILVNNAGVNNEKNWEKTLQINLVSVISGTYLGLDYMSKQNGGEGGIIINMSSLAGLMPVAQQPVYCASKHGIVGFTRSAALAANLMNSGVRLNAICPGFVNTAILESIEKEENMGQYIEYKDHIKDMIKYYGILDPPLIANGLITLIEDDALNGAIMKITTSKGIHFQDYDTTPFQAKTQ
#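 NADH formation kinetics: reaction with 30 uM PGE2 and 1 mM NAD+ (final), 20 nM enzyme, Tris-HCl pH 8 with Tween 20, after 15 min compound preincubation at room temperature. Fluorescence change, last versus first of five reads.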
# An asterisk follows results filed as active; ? = inconclusive; ! = not active in a repeat. On the % scale 0 is the no-effect control and ±100 the full control effect; potency means the concentration at half of the fitted maximal effect.
SMILES,HPGD inh
Cc1ccc(SCc2cc(=O)[nH]c(Nc3nc(C)c4ccc(C)cc4n3)n2)cc1,-9%
CC(=O)N1CC=CC1(CC(C)C)C(=O)O (stereo unspecified),-4%
Cc1nc2cnc(N(C)C)nc2n(C)c1=O,?
O=C1C(Nc2ccccc2)=C(NS(=O)(=O)c2ccccc2)C(=O)c2ccccc21,1%
CCOc1ccc(NC(=O)NCC2CCN(c3ccc(OC)cc3)C2)cc1 (stereo unspecified),9%
Cc1ccc(S(=O)(=O)N2CCCCC2)cc1NC(=O)CSc1ccc2c(c1)OCCO2,-9%
COC(=O)Sc1nnc(-c2ccc(Br)cc2)o1,22µM*
CN(C)C(CNC(=O)CCCOc1ccccc1)c1ccco1 (stereo unspecified),-17%
CCn1c2ccccc2c2cc(CN3CCN(S(C)(=O)=O)CC3)ccc21,-9%
CCOc1ccccc1NC(=O)/C=C/c1ccccc1[N+](=O)[O-],-12%
COCCn1c(=O)c(-c2cc(F)cc(F)c2)nc2cnc(Oc3cccc(Cl)c3)nc21,?
CCOC(=O)c1nnn(-c2nonc2N)c1CSc1ccccn1,-7%
CCN(CC)S(=O)(=O)c1ccc(C)c(NC(=O)CSc2ncc(C(F)(F)F)cc2Cl)c1,-9%
CCNC(=S)Nc1ccc(Cl)c(C(F)(F)F)c1,-3%
CCCCN(CCCC)C(=O)c1cc2ccccc2c(=O)o1,-26%
COC(=O)CNC(=O)c1ccccc1C,-13%
NC(=O)c1ccccc1NS(=O)(=O)c1ccccc1,?
CCOCCN1CCN(c2c3c(nc4cc(-c5ccc(F)cc5)nn24)CCC3)CC1,-9%
O=C(/C=C/c1ccc(O)c(O)c1)OC(Cc1ccc(O)c(O)c1)C(=O)O (stereo unspecified),22µM*!
CC(C)c1ccc(O)c(NC(=O)c2ncn[nH]2)c1,-6%
O=C(CCN1c2ccccc2Sc2ccccc21)OCC(=O)N1CCN(C(=O)c2ccco2)CC1,-25%
Cc1ccc(C2C=C(c3ccc4c(c3)OCO4)Nc3ncnn32)cc1 (stereo unspecified),-13%
O=C(COc1ccc(Br)cc1F)NC1CCN(Cc2ccccc2)CC1,2%
O=C1NC2(CCCCC2)Cc2ccccc21,-27%
CCCCc1cc2c(cn1)C(=O)C(C)(OC(C)=O)C(=O)C2 (stereo unspecified),-4%
O=C(Nc1ccc2c(c1)OCO2)C(c1ccc(Cl)cc1)N1CCC2(CC1)OCCO2 (stereo unspecified),-7%
C/C(CC(=O)NCc1ccc(Cl)cc1)=N\NC(=O)Cc1ccccc1,-8%
CCn1c2c(c(C)cc1=O)C(=O)CC(C)(C)C2,-9%
COc1cc(CNn2cnnc2)ccc1OCC(=O)NC1CCCCC1,?
Cn1c(SCC(=O)N(Cc2ccccc2)C(C)(C)C)nc2ccccc21,-12%
COc1ccc(N2CCN(C(=O)CSc3ccccc3N)CC2)cc1,?
COC(=O)c1ccccc1NC(=O)CCS(=O)(=O)c1ccc(Br)s1,-9%
Cc1ccc(N2C(=O)[C@@H]3C(c4ccc(F)cc4)=NO[C@@H]3C2=O)cc1,-3%
COc1ccc(C(=O)N2CCC3(CCCN(c4ccccc4)C3)CC2)cc1,-7%
CCCN1Cc2cccc(C(=O)NCCCOC(C)C)c2C1=O,-10%
O=C1CC(c2ccc3c(c2)OCO3)CN1 (stereo unspecified),1%
COC(=O)c1ccc2c(=O)n(CCN3CCOCC3)c(=S)[nH]c2c1,-6%
COc1ccc(-c2ccc(SCC(=O)N3CCCC3)nn2)cc1OC,?
COC(=O)/C=C1/S/C(=N/NC(=O)c2ccccc2)NC1=O,-22%
COc1ccccc1OCC(=O)N/N=C/C=C/c1ccc([N+](=O)[O-])o1,-4%
CCc1cc2c(=O)[nH]c(Cc3ccc(OC)cc3)nc2s1,-14%
Cc1ccc2cc(C)c3nnc(SCC(=O)N4CCN(C(=O)c5ccco5)CC4)n3c2c1,-22%
c1ccc2sc(SCc3ccc(-c4nnco4)cc3)nc2c1,?
CCC(C)NC(=O)c1ccc(COc2ccccc2Cl)cc1 (stereo unspecified),20µM*
CCNC(=O)Nn1c(C)nnc1C,-11%
COc1ccc2[nH]cc(CCNc3ncnc4ccc(-c5ccccc5C#N)cc34)c2c1,-23%
O=C(CC1=NC2(CCCC2)Cc2ccccc21)N1CCOCC1,-12%
CCCCNC(=O)Nc1nnc(-c2ccc(Cl)cc2)o1,-20%
CCOc1ccc(OCC)c(NC(=O)CCn2c(=O)oc3ccccc32)c1,-5%
COCCn1c(SCC(=O)N2CCCCC2)nc2cccnc21,-7%
O=c1c2ccccc2nc(/C=C/c2cccc([N+](=O)[O-])c2)n1CCO,0%
Cc1cccc(-n2c(SCC(=O)Nc3ncc(Cl)cc3Cl)nc3ccccc32)c1,-10%
COc1ccc(/C=C(/NC(=O)c2ccccc2)C(=O)N/N=C/c2sccc2C)cc1,-26%
O=C(CCN1C(=O)c2ccccc2C1=O)Nc1sc2c(c1C(=O)NCC1CCCO1)CCC2 (stereo unspecified),-5%
COc1ccc2[nH]cc(CCNc3ncnc4ccc(-c5ccccc5CN(C)C)cc34)c2c1,-13%
S=c1[nH]nc(-c2ccccc2)n1/N=C/c1c[nH]c2ccccc12,2µM*
COc1ccc(-c2nc(=S)[nH][nH]2)cc1,13µM*
CCC(c1nnc(SCC(=O)N2CC(=O)Nc3ccccc32)n1Cc1ccccc1)N(C)C (stereo unspecified),-7%
CC1CCN(C2=NC(=O)/C(=C/c3cn(-c4ccccc4)nc3-c3cccc(S(=O)(=O)N(C)C)c3)S2)CC1,?
Cc1cccc(OCc2nnc(SCC(=O)N3c4ccccc4CC3C)n2C)c1C (stereo unspecified),-15%

# A draw from above in order of count of non-hydrogen atoms, largest number first.
SMILES,HPGD inh
CC1CCN(C2=NC(=O)/C(=C/c3cn(-c4ccccc4)nc3-c3cccc(S(=O)(=O)N(C)C)c3)S2)CC1,?
COc1ccc2[nH]cc(CCNc3ncnc4ccc(-c5ccccc5CN(C)C)cc34)c2c1,-13%
O=C(CCN1C(=O)c2ccccc2C1=O)Nc1sc2c(c1C(=O)NCC1CCCO1)CCC2 (stereo unspecified),-5%
Cc1ccc2cc(C)c3nnc(SCC(=O)N4CCN(C(=O)c5ccco5)CC4)n3c2c1,-22%
COc1ccc(/C=C(/NC(=O)c2ccccc2)C(=O)N/N=C/c2sccc2C)cc1,-26%
Cc1cccc(-n2c(SCC(=O)Nc3ncc(Cl)cc3Cl)nc3ccccc32)c1,-10%
CCOc1ccc(OCC)c(NC(=O)CCn2c(=O)oc3ccccc32)c1,-5%
O=c1c2ccccc2nc(/C=C/c2cccc([N+](=O)[O-])c2)n1CCO,0%
S=c1[nH]nc(-c2ccccc2)n1/N=C/c1c[nH]c2ccccc12,2µM*
CCC(C)NC(=O)c1ccc(COc2ccccc2Cl)cc1 (stereo unspecified),20µM*
CCCCNC(=O)Nc1nnc(-c2ccc(Cl)cc2)o1,-20%
COc1ccc(-c2nc(=S)[nH][nH]2)cc1,13µM*
CCNC(=O)Nn1c(C)nnc1C,-11%

# (further entries)
SMILES,HPGD inh
COc1ccc2c(c1)O[C@H](c1ccc3c(c1)OCO3)[C@@H](OC(=O)NCc1ccc3c(c1)OCO3)C2=O,-6%
Cc1cc[n+](CCC(=O)O)c2ccccc12,-26%
Cc1cc(N2CCOCC2)nc2ccc(NC(=O)CCC(=O)N3CCCC(C)C3)cc12 (stereo unspecified),?
Cc1ccc(Oc2coc3cc(OC(=O)c4cccs4)ccc3c2=O)cc1,-15%
C=CCNC(=O)c1cc2nc(C3CC3)cc(C(F)F)n2n1,-8%
O=C(Nc1nc2c(s1)CCCC2)c1cc(-c2ccncc2)nc2ccccc12,-12%
CCCCNc1c2c3c(cccc3n(C)c1=O)C(=O)c1ccccc1-2,-2%
C[N+](C)(C)CC(=O)N/N=C\c1ccncc1,-7%
CCOc1cc(C(=O)CCC(=O)OCC(=O)N2c3ccccc3NC(=O)C2(C)C)ccc1O,-10%
COc1cccc(C(=O)CN2C(=O)C(C)(C)Oc3ccc(C(=O)N4CCCCCC4)cc32)c1,2.2µM*
O=C(Cc1ccccc1)NC(NCCc1ccccc1)C(Cl)(Cl)Cl (stereo unspecified),-21%
Clc1ccccc1OCc1nc(-c2ccccn2)no1,-27%
Cc1ccccc1NCC(=O)N/N=C\C=C\c1cccc([N+](=O)[O-])c1,-9%
CC(C)c1nnc(NC(=O)C2CCCCC2)s1,-13%
C=CCN1C(=O)C(CCCC)NC1=S (stereo unspecified),-4%
O=c1cc(-c2ccccc2)oc2c(O)c(O)ccc12,3.2µM*
CS(=O)(=O)N1CCN(c2ccccc2NC(=O)c2cccnc2Cl)CC1,-10%
COc1ccc(C(=O)N/C(=C\c2ccco2)C(=O)NCc2cccnc2)cc1,-10%
O=C(CSCc1ccccc1Cl)NNC(=S)Nc1ccccc1,-21%
CC1(C)C(=O)Nc2ccccc2N1C(=O)COc1ccc(S(=O)(=O)N2CCOCC2)cc1Cl,-1%
CC(C)(C)N(NC(=O)Nc1ccccc1)C(=O)c1ccccc1Cl,-3%
Cc1cc(C)c(C)c(OCCOCCNCc2ccccc2)c1,-1%
Clc1ccc(-c2nc3ncccn3c2Nc2ccc3c(c2)OCCO3)cc1,0%
COc1ccc(Nc2ccccc2)c(C)c1,-7%
CC1CCN(S(=O)(=O)c2ccc(NC(=S)NC(=O)c3ccc(Cl)cc3)cc2)CC1,-18%
COc1cccc(NC(=O)C(=O)N/N=C/c2cc(C)n(-c3ccc(Cl)c(Cl)c3)c2C)c1,?
C#CCNc1c(C)c(C)nc2ncnn12,-13%
CCC(=O)N1c2ccc(S(=O)(=O)N(CCO)Cc3ccccc3)cc2CC1C (stereo unspecified),?
O=C(CSc1nc2ccccc2c(=O)n1NC(=O)c1ccccc1)c1ccccc1,-10%
CC(C)=CC(=O)OCC(=O)Nc1ncc(Cl)c(C)c1Cl,-10%
CC(C)CC(NC(=O)C(NC(=O)C(Cc1ccc(OCc2ccccc2)cc1)NC(=O)OC(C)(C)C)C(C)C)C(N)=O (stereo unspecified),1%
COc1ccc(C(c2sc3nc(C)nn3c2O)N2CC(C)OC(C)C2)cc1OC (stereo unspecified),-13%
CCOc1ccccc1NC(=O)CCN1CCN(S(=O)(=O)c2ccc(OC)cc2)CC1,-10%
Cc1cccc(COCC(Cc2ccccc2)N2CCN(C(=O)c3cc(Cl)cc(Cl)c3)CCC2=O)c1 (stereo unspecified),-3%
COC(=O)C(Cc1cnc(Cl)s1)(C(=O)OC)c1ccc(C(F)(F)F)cc1[N+](=O)[O-],-1%
CCOC(=O)Cn1nnnc1C(CC)N(Cc1cc2ccc(C)cc2[nH]c1=O)C1CCCC1 (stereo unspecified),-16%
CC(C)OCCCNc1ncnc2c1[nH]c1ccc(F)cc12,?
COc1ccc(C2N(c3ccccn3)C(=O)C3CCCN32)c(OC)c1 (stereo unspecified),-5%
CC(C)Cc1nc(S(=O)(=O)c2ccc(Cl)cc2)c(N2CCOCC2)o1,-6%
O=C(CC1SC(=NCc2ccccc2)NC1=O)Nc1ccccc1 (stereo unspecified),-2%
CN(C)S(=O)(=O)n1ccnc1,-7%
O=C(CCc1ccccc1)Nc1cc(C(F)(F)F)ccc1Cl,-8%
CCOC(=O)N1CCC(NC(=O)c2ccc(CS(=O)(=O)c3ccccc3C)o2)CC1,-18%
O=C(CSc1nnc(-c2ccc(Br)o2)n1Cc1ccccc1)c1ccccc1F,32µM*
COc1ccc2c(COC(=O)CC3Sc4ccccc4NC3=O)cc(=O)oc2c1 (stereo unspecified),?
COc1cccc(-n2c(Cc3cc(=O)[nH]c(=O)[nH]3)nnc2SCC(=O)NC2CCCCC2)c1,-20%
CCOC(=O)CSc1nnc(-c2ccco2)n1-c1ccccc1,32µM*
Cc1ccc(NC(=O)c2ccc(CSc3nnc(-c4ccncc4)n3C)cc2)cc1,0%
CCCCC(=O)Nc1ccnc(-c2cccnc2)n1,-14%
CC(C)(C)c1cc2cccnc2n1Cc1cccc(Cl)c1,?
COC(=O)c1sccc1NC(=O)c1ccc(C)s1,-6%
CC1CC(C)CN(c2nc(NCc3ccco3)nc(N)c2[N+](=O)[O-])C1 (stereo unspecified),-12%
COc1ccc(OC)c(-c2nnc(-c3ccc(C)o3)o2)c1,?
CCOc1ccc(C(CCc2ccccc2)NC(=O)c2ccccc2)cc1OCC (stereo unspecified),-11%
Cc1ccc2cc(CCNC(=O)CC(C)(C)C)c(=O)[nH]c2c1C,-25%
O=C(Cn1c(=O)oc2cc(S(=O)(=O)N3CCCC3)ccc21)NCc1ccccn1,-6%
Cc1ccc(CSc2nnc(-c3ccccc3N)c(=O)[nH]2)cc1,-16%
CCn1cc(S(=O)(=O)CC(=O)Nc2cc(C)on2)c2ccccc21,-4%
Cc1ccc(NC(=O)CSC(N)=O)cc1Cl,-13%
c1cc2c(cc1CN1CCOCC1)OCO2,-4%

# Random excerpt: 3 entries already listed
SMILES,HPGD inh
CCCCNC(=O)Nc1nnc(-c2ccc(Cl)cc2)o1,-20%
CCn1cc(S(=O)(=O)CC(=O)Nc2cc(C)on2)c2ccccc21,-4%
Clc1ccccc1OCc1nc(-c2ccccn2)no1,-27%

# Next section
SMILES,HPGD inh
Cn1c(CCNC(=O)c2ccccc2)nc2cc(NC(=O)c3ccco3)ccc21,-1%
CC(C)CNC(=O)NC(=O)CSc1nc2ccccc2n1CC(C)C,-4%
CN1CCN(Cc2nc3c(c(=O)[nH]c(=O)n3C)n2CCc2ccccc2)CC1,-1%
COCCn1c(=O)[nH]c2cc(C(=O)NCc3cccnc3)ccc2c1=O,?
C=CC(O)Cc1c(C)n[nH]c1C (stereo unspecified),-3%
CCOC(=O)N1CCN(C(=S)NCCOC)CC1,-11%

# A portion of the library (hit frequency here may not be typical).
